# High-throughput results deposited in PubChem BioAssay by Johns Hopkins Ion Channel Center.
# KCNQ2 pot: potentiators of rat KCNQ2 potassium channel; Potassium voltage-gated channel subfamily KQT member 2 (Rattus norvegicus), O88943; B-score at 10 µM; CHO-K1 KCNQ2, FluxOR thallium flux fluorescence; hits give high values; 310,000 compounds, 0.54% hits; AID 2239, 2010;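 active means fluorescence ratio B-score at least 3 SD of library B-scores, with initial fluorescence B-score within 3 SD, cut at about 5.3 in these data; same plate scores as AID 2156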;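 further: B-score of peak minus minimum over baseline fluorescence ratio after K+ and Tl+ stimulus; positive B-score means potentiation of KCNQ2 with more thallium influx and brighter signal; only the inactives scoring about 0 or higher are listed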
# Target sequence (O88943 whole entry, looked up): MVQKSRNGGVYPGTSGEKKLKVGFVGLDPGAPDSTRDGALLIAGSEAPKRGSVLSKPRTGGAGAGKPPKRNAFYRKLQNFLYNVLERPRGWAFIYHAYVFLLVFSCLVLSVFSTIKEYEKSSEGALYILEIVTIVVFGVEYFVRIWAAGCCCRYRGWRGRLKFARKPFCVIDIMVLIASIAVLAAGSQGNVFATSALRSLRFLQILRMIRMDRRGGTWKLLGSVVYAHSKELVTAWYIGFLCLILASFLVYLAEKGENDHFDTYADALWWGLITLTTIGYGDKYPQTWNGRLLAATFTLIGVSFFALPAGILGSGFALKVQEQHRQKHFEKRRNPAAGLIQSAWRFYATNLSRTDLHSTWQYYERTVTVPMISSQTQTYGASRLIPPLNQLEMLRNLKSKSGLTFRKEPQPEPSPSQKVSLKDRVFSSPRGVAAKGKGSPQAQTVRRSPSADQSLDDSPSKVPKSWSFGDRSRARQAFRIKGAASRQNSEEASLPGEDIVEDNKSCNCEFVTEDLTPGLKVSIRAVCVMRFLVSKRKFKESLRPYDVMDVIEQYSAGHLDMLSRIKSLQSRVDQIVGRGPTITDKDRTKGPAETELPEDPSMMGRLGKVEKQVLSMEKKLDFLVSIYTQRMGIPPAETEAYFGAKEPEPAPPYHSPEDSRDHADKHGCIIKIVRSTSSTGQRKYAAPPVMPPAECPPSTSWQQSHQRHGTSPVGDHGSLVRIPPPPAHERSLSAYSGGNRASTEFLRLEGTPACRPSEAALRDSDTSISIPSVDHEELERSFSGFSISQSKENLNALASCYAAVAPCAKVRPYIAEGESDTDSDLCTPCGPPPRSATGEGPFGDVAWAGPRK
# KCNQ2 pot baseline: recorded beside KCNQ2 pot, whose call it bears; B-score; compound at 10 µM; measured here: initial fluorescence intensity artifact check;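 brightness before thallium and not channel activity; 0 = typical well and far values either way flag optical interference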
# * = called active by the depositor. The list is partial (hit frequency here may not be typical).
KCNQ2 pot baseline,KCNQ2 pot,Molecule
-2.3,1.2,O=C(CNC(=O)c1ccco1)NCC(=O)OC(C(=O)c1ccccc1)c1ccc(Cl)cc1 (configuration not stated)
0.82,0.84,Cc1cccc(NC(=O)CCNC(=O)c2ccc(Br)cc2)c1C
1.4,0.08,O=C(COC(=O)C1CCN(S(=O)(=O)c2ccccc2C(F)(F)F)CC1)NCc1ccc(F)cc1
0.09,0.22,COc1ccc(C(=O)Cn2c(Br)nc3c2c(=O)n(C)c(=O)n3C)cc1OC
-1.2,0.76,O=C(O)C1C2C=CC(C2)C1C(=O)Nc1cccc(F)c1 (configuration not stated)
-0.37,0.07,Nc1nsnc1C(=O)NCCO
0.02,5.1,COc1ccc(/C=C2/SC(=S)N(NS(=O)(=O)c3ccc(C)cc3)C2=O)cc1
0.41,1,Nc1ccccc1-c1nc2ccccc2[nH]1
-2,0.08,O=C(Nc1ccn(-c2ccccc2)n1)c1ccc(S(=O)(=O)N2CCCCCC2)cc1
0.38,0.16,CCNC(=S)NCCN1CCCCC1
-0.4,0.07,CCOc1cc(C(=S)N2CCOCC2)ccc1OS(=O)(=O)c1ccccc1
-0.99,1.5,COc1ccccc1CNC(=O)C1CCN(S(=O)(=O)c2c(C)noc2C)CC1
-1.6,0.62,CC(OC(=O)c1ccccc1N1C(=O)C2C3CCC(C3)C2C1=O)C(=O)c1ccccc1 (configuration not stated)
-0.41,0.41,Cc1cc(Br)c(OCc2ccc(C(=O)N/N=C3\CC4CC=CC34)cc2)c(Br)c1 (configuration not stated)
0,0.43,COc1ccc(OC)c(NC(=O)CSc2nnc(CCCO)n2-c2ccccc2)c1
0.25,0.99,O=[N+]([O-])c1ccc(Nc2nccc(Cl)n2)cc1
1.6,1.3,CCOc1ccc(C2C(C(=O)c3ccc(C)o3)=C(O)C(=O)N2c2nc(C)c(C(=O)OC)s2)cc1 (configuration not stated)
0.75,1.4,CCn1c(CNC(=O)c2ccco2)nnc1SCC(=O)Nc1cc(C)c(C)cc1Br
-0.36,2.5,Cc1nn(C)c(C)c1NC(=O)CSc1nc(-c2ccccc2Cl)nc2c1cnn2-c1ccccc1
0.79,0.5,O=C1[C@@H]2Cc3c([nH]c4ccccc34)CN2C(=O)CN1CCCCCO
-0.81,1.2,O=C(NNS(=O)(=O)c1ccc(C(F)(F)F)cc1)c1cnn(-c2ccccc2)c1C(F)(F)F
0.17,2.3,CCOCCCNC(=O)C(c1ccc(Cl)cc1)N(Cc1ccc2c(c1)OCO2)C(=O)CNC(C)=O (configuration not stated)
0.95,0.52,CCOC(=O)c1cc(C)sc1NC(=O)CSc1nccn1C
0.5,0.51,COc1ccccc1CNC(=O)N1CCN(S(=O)(=O)c2ccc(C)cc2)CC1
0.34,0.84,Cc1ccc(NC(=O)CSc2ncccn2)cc1S(=O)(=O)N1CCCCC1

# Gathered by group, those above containing an NH in an aromatic ring
KCNQ2 pot baseline,KCNQ2 pot,Molecule
0.41,1,Nc1ccccc1-c1nc2ccccc2[nH]1
0.79,0.5,O=C1[C@@H]2Cc3c([nH]c4ccccc34)CN2C(=O)CN1CCCCCO

# The main list resumes; the 6 compounds before the break are reprinted first.
KCNQ2 pot baseline,KCNQ2 pot,Molecule
0.79,0.5,O=C1[C@@H]2Cc3c([nH]c4ccccc34)CN2C(=O)CN1CCCCCO
-0.81,1.2,O=C(NNS(=O)(=O)c1ccc(C(F)(F)F)cc1)c1cnn(-c2ccccc2)c1C(F)(F)F
0.17,2.3,CCOCCCNC(=O)C(c1ccc(Cl)cc1)N(Cc1ccc2c(c1)OCO2)C(=O)CNC(C)=O (configuration not stated)
0.95,0.52,CCOC(=O)c1cc(C)sc1NC(=O)CSc1nccn1C
0.5,0.51,COc1ccccc1CNC(=O)N1CCN(S(=O)(=O)c2ccc(C)cc2)CC1
0.34,0.84,Cc1ccc(NC(=O)CSc2ncccn2)cc1S(=O)(=O)N1CCCCC1
0.55,0.06,COc1cc2c(cc1OC)C(c1ccccc1C)CC(=O)N2 (configuration not stated)
2.6,1.3,CCC(=O)N1CCc2cc(S(=O)(=O)N3CCc4ccccc43)ccc21
-0.3,0.05,O=C(Nc1cccnc1Cl)c1ccc(Cl)cc1
0.35,0.62,Cc1ccc(CN2CCNC(=O)C2CC(=O)N(C)C2CCOCC2)cc1 (configuration not stated)
-0.24,1.2,CC1=CN2C(=NC(=O)CC2(C)C(=O)N(CC(=O)NC2CCCC2)c2ccccc2C)C=C1 (configuration not stated)
-0.37,1.6,C/C(=N\NC(=O)CCC(=O)Nc1ccccc1)c1cccs1
0.89,0.32,CN(C)CCN(C(=O)c1ccc2ccccc2c1)c1nc2ccc(Br)cc2s1
-0.44,0.17,O=C(CCC1COc2ccccc2O1)NCc1ccccc1 (configuration not stated)
-1.2,0.81,CCOCCn1c(=NC(=O)/C=C/c2ccccc2Cl)sc2cc(NC(C)=O)ccc21
-0.28,0.22,Cn1nnnc1NCc1ccc(Cl)c(Cl)c1
-1.1,1.3,CCOc1ccc(N=Cc2ccc3ccccc3c2)cc1
-1.3,0.77,CC(C)(C)NC(=O)Cn1cnc([N+](=O)[O-])n1
-0.91,1,Cc1cc(C)c(S(=O)(=O)Nc2nnc(C)s2)c(C)c1
0.31,0.93,CCc1nnc(SCC(=O)Nc2ccc(C(C)=O)cc2)nc1CC
1.7,0.05,CCC1C(O)=C(c2ccccn2)C(=N)N1c1ccccc1 (configuration not stated)
-0.87,1.3,Cc1sc(NC(=O)C2CCCCC2C(=O)O)c(C(N)=O)c1-c1ccccc1 (configuration not stated)
0.17,0.04,CCOC(=O)c1c(S(=O)(=O)NCC(=O)N2CCN(c3ccc(F)cc3)CC2)c(C)n(C)c1C
-0.23,0.96,O=C(Nc1ccccc1)N1CCN(C2c3ccccc3-c3ccccc32)CC1
-0.69,0.04,Cc1cccc(-n2c(C)cc(/C=N/n3cnnc3)c2C)c1
-2,3.7,Cc1cc(Cl)ccc1OCC(=O)Nn1c(C)ccc1C
-1.6,0.83,CCn1nc(C(=O)OCC(=O)N2CCc3ccccc32)c2ccccc2c1=O
0.21,0.65,Cc1ccc(NC(=O)CNC(=O)c2sc3ccccc3c2Cl)nc1
-0.59,0.3,O=C(CSc1n[nH]c(=O)[nH]c1=O)NC1CCCCC1
-0.59,2.2,Cc1ccc(NC(=O)CS(=O)(=O)c2c[nH]c3ccccc23)c(C)c1
0,1.4,Cc1nnc(SC(C)C(=O)Nc2ccc3ccccc3c2)[nH]c1=O (configuration not stated)

# A second format for 2 compounds above.
Compound,KCNQ2 pot baseline,KCNQ2 pot
O=[N+]([O-])c1ccc(Nc2nccc(Cl)n2)cc1,0.25,0.99
CCOc1ccc(C2C(C(=O)c3ccc(C)o3)=C(O)C(=O)N2c2nc(C)c(C(=O)OC)s2)cc1 (configuration not stated),1.6,1.3

# Remaining list, next part.
KCNQ2 pot baseline,KCNQ2 pot,Molecule
-1.3,0.11,COc1ccc(NC(=O)CN(C)C(=O)Cn2cnc3c2c(=O)n(C)c(=O)n3C)cc1
0.02,1,C=CCOCCN(C)C1=NS(=O)(=O)c2cc([N+](=O)[O-])ccc21
-1.1,2.7,O=C(Nc1ccc(F)cc1)Oc1ccc[nH]c1=O
-1.2,0.92,O=C(NCSc1ccnc(SCNC(=O)c2ccccc2)n1)c1ccccc1
-1.1,0.82,CCOc1ccc(Oc2nc(Nc3ccc(C)cc3)nc(N(C)C)n2)nn1
1.9,1.8,COc1ccc(OC)c(-c2nn(-c3ccccc3)cc2C(=O)NCC2CCCO2)c1 (configuration not stated)
0.93,1.7,OC[C@@H](O)[C@@H](O[C@H]1O[C@H](CO)[C@@H](O)[C@H](O)[C@H]1O)[C@H](O)[C@@H](O)CO
0,1.1,CCCc1cc(=O)n2[nH]cnc2n1
-0.26,0.98,CCCc1nn(C)c(C(=O)Nc2cccc(CC)c2)c1Cl
0.19,0.02,Cc1ccc(C(=O)NCC(=O)Nc2cccc(C(F)(F)F)c2)cc1
-0.76,2.3,O=C(CSc1ccccn1)c1ccc2c(c1)OCO2
-0.06,2,Nn1cc(-c2ccccc2)nc1SCC(=O)N1CCN(S(=O)(=O)c2ccc3ccccc3c2)CC1
0.19,0.05,COc1ccc(-c2nc(C#N)c(NC(C)c3ccccc3)o2)cc1OC (configuration not stated)
1,0.04,COc1ccc2[nH]cc(CCNC(=O)Cc3ccc(F)cc3)c2c1
1.5,0.68,CC(C)(C)NC(=O)C(c1ccccn1)N(C(=O)c1csnn1)C1CCCCC1 (configuration not stated)
2.4,0.5,Cn1ccc(-c2ccccc2)c(C#N)c1=O
2.3,0.01,CCCCNC(=O)Cn1cnc2c(cnn2-c2ccc(C)cc2)c1=O
-2.6,0.01,C=CCNC(=O)c1sc(=S)n(-c2ccc(C(=O)OCC)cc2)c1N
-1.4,0.37,Cc1cc(S(=O)(=O)N2CCC(N3CCCCC3)CC2)ccc1-n1cnnn1
0.18,1.2,O=c1[nH]c(N2CCOCC2)nc2c1CCCC2
-0.22,0.31,CC(=O)Nc1ccc(OCCOc2ccc(/C=C3/C(=N)N4C=CSC4=NC3=O)cc2)cc1
0.61,0.99,O=C(NN1CCOCC1)c1ccc(Br)s1
0.36*,7.1*,CC(NC(=O)C1CCCC1)c1ccc(Br)cc1 (configuration not stated)
-2.6,0.22,COc1ccc2[nH]c(=O)c(CN(C(=O)C(C)C)c3ccccc3OC)cc2c1
-0.03,0.29,CC(C)(C)C1CCCCC1NC(=O)c1ccncc1 (configuration not stated)
-1.7,0.31,Cc1cc(NC(=O)CCC(=O)N(c2ccccc2)C(C(=O)NC(C)(C)C)c2ccccc2Cl)no1 (configuration not stated)
0.53,0.65,CC(C)(C)c1cc(C(=O)N/N=C/c2ccccn2)n[nH]1
-0.13,0.66,O=C(/C=C/c1ccc([N+](=O)[O-])cc1)NCCOc1ccc(F)cc1
0.73,0.06,O=C(Cc1ccccc1)N[C@H](c1ccccc1)P(=O)(O)CO
0.53,0.41,Cc1ccc(CNc2nc(N)c([N+](=O)[O-])c(NCc3ccccc3)n2)cc1
0.09,1.1,Cc1cc(C(=O)N/N=C2\CCCC(=O)C2)c2ccccc2n1
-1.8,0.66,CCOC(=O)C1Cc2c([nH]c3ccccc23)CN1 (configuration not stated)
1.2,1.8,COc1ccccc1C(=O)Nc1ccnn1C1CCN(Cc2ccc3nonc3c2)CC1
0.56,0.05,O=C(O)COc1ccccc1/C=N/NC(=O)c1ccc(F)cc1
-0.27,0.08,O=C(c1c(F)cccc1F)N1CCN(c2ccccc2F)CC1
1.2,0.6,[O-][N+]12CCN(CC1)c1ccccc12
0.07,1.1,Cc1ccc2c3c([nH]c2c1C)-c1nonc1CC3
0.96,0.07,O=C(NCCCN1CCCC1)C1CCC(=O)N1C1CCCCC1 (configuration not stated)
0.46,0.24,CCOC(=O)C(C)Oc1cccc2c(=O)n(CC(=O)NCCc3ccccc3)ccc12 (configuration not stated)
-0.68,0.62,COc1ccc(OC)c(S(=O)(=O)Nc2cc3c4c(c2)CCC(=O)N4CCC3)c1
0.08,0.02,Cc1cccc(N(Cc2ccccc2)C(=O)c2ccc(F)c(S(=O)(=O)N3CCOCC3)c2)c1
-0.43,1.4,Cc1nc(C)n(C(C)CNS(=O)(=O)c2ccc(C)c(C)c2)n1 (configuration not stated)
1.7,0.33,COc1ccccc1N(Cc1cc(=O)[nH]c2ccccc12)C(=O)C(C)C
1.5,0.83,O=C(N/N=C/C1=Cc2ccccc2OC1)c1ccncc1
1.5,1.2,O=C(CN1C(=O)CCSc2ccccc21)NC1CCCCC1
-0.69,0.23,CCCS(=O)(=O)N1CCCC(C(=O)NCCCN(C)c2ccccc2)C1 (configuration not stated)
1.6,0.66,CCc1ccc(S(=O)(=O)Nc2cc(SCC(=O)O)c(O)c3ccccc23)cc1
0.06,0.97,O=C(Nc1ccc(Cl)c([N+](=O)[O-])c1)c1cnccn1
0.52,0.85,Cc1ccc(S(=O)(=O)/N=C(/Nc2cccc3ccccc23)c2ccc(F)cc2)cc1
0.25,0.41,C/C(=N\NC(=O)C1COc2ccccc2O1)c1cccs1 (configuration not stated)

# Further results
KCNQ2 pot baseline,KCNQ2 pot,Molecule
0.83,0.06,N#C/C(=C\c1ccccc1O)C(=O)Nc1ccccn1
0.13,0.84,CCc1nnc(NS(=O)(=O)c2ccc(NC(=O)c3ccccc3OC)cc2)s1
-2.1,1.6,C=CCn1c(N)c(C(=O)OCCC)c2nc3ccccc3nc21
-0.15,0.44,C/C(=N\NC(=O)C1CC1(c1ccccc1)c1ccccc1)c1cccc([N+](=O)[O-])c1 (configuration not stated)
-1.8,0.38,CCN1C(=O)CS/C1=N\S(=O)(=O)c1ccc(C)cc1
1.3,0.61,COc1cc2cc(C)c(SCC(=O)N3CCN(C(=O)c4ccco4)CC3)nc2cc1OC
-0.23,0.73,Cc1cc(/C=C2\NC(=O)NC2=O)c(C)n1-c1ccc(N2CCOCC2)cc1
0.06,1.8,COCCNC(=O)CSc1nnc2c(Cl)cc(Cl)cn12
0.32,0.04,O=C(C1CCN(S(=O)(=O)N2CCOCC2)CC1)N1CCN(c2ccccc2)CC1
-2.4,1,COc1ccc(OC)c(C2=NS(=O)(=O)N(C)C(C(=O)Nc3ccc(C(C)=O)cc3)=C2)c1
-1.1,1.3,CC(/C=C/c1ccccc1)=N\NC(=O)CNC(=O)c1ccccc1Cl
-0.01,0.9,Cc1ccc2c(c1)N(CCC(=O)NC1CCCCC1)C(=O)CO2
0.91,1.7,Cc1ccc(C)c(NNC(=O)C(=O)NNc2cc(C)ccc2C)c1
0.7,1.2,COC(=O)c1ccc(CSc2nnc(CNC(=O)c3cccs3)o2)o1
